# High-throughput results deposited in PubChem BioAssay by several laboratories.
# Mtb hypoxia inh: inhibitors of hypoxia-regulated fluorescent reporter in Mycobacterium tuberculosis. fluorescence inhibition, % (concentration not given with the values). M. tuberculosis hypoxia-regulated fluorescent reporter, fluorescence. 0.1% of 300,000 active;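 active = 35 to 45% if threefold the growth effect, above 45% if 1.5-fold the growth effect; inactive = the rest, general growth blockers included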;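 note: wells of about 50 µL received 100 nL stock; 0% = vehicle wells and 100% = reference inhibitor wells; whole bacteria with a GFP reporter of the hypoxia response; strong numbers were not always called active; many hits fall short of the cut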
# Bead autofluor: counter-screen for toxin protease inhibitors: compound fluorescence; 3.1% of 360,000 active; fluorescence intensity (no concentration beside the values); compound autofluorescence counterscreen, microsphere flow cytometry; stronger effect = higher value; AID 624483;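 active = at least 3 SD above the mean of all compounds, about 16000 in these data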;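 note: 100 nL of 1 mM stock went into each well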
# RN4220 kill: kills Staphylococcus aureus RN4220; 0.33% of 330,000 active; S. aureus RN4220 growth, OD600, 16 h; inhibition, % (test concentration not listed); AID 1259311;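 active = z-score of -3 or lower and OD600 up to 0.18 on both plates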;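 note: plate controls were untreated cells for no effect and reference antibiotic for full effect; stock transfer was 100 nL into about 80 µL; one replicate is shown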
# PrP UTR inh: inhibition of PrP 5' UTR reporter expression. cell-based PrP 5' UTR mRNA reporter, plate reader. inhibition, % (no concentration beside the values). 0.35% of 340,000 active;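 active = every replicate at 50% or more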;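 note: 0 = median of the neutral control wells; tested in H4 reporter cells; numbers are from one replicate; inactives centre near -14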
# BJeLR viability: kills HRASV12-expressing BJeLR cells | BJeLR (HRASV12) viability, CellTiter-Glo ATP luminescence, 48 h; reference of the scale not given here | inhibition, % (concentration not given with the values) | 0.17% of 300,000 active;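 active = replicate mean above 50%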;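 note: 50 nL library stock added to about 25 µL; numbers are from one replicate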
# Sa ugtP lethal: growth inhibition of S. aureus ugtP deletion strain. 0.54% of 330,000 active. S. aureus RN4220 ugtP deletion, OD600 growth, 16 h; some inactives read as strong as hits. AID 1259309. growth inhibition, % (concentration not given with the values);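 active = z-score under -3 and OD600 up to 0.15 on both plates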;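 note: plate controls were untreated wells for no effect and antibiotic for full effect; wells of about 80 µL received 100 nL stock; the first replicate is given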
# Mtb hypoxia inh growth: recorded beside Mtb hypoxia inh, whose call it bears; growth inhibition, %; measured here: M. tuberculosis growth (absorbance);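 0% = vehicle and 100% = reference antibiotic; read after six days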
# Numbers without * were called inactive; . = not tested or not shown; & = joins results of further samples.
smiles	Mtb hypoxia inh	Mtb hypoxia inh growth	Bead autofluor	RN4220 kill	PrP UTR inh	BJeLR viability	Sa ugtP lethal
Cc1cc(Cl)ccc1C(=O)C1CCCN(C(=O)c2cccnc2C)C1 (stereo not drawn)	10	-2	4297	6.1	-19	2	13
Cc1ccc(S(=O)(=O)Nc2ccc(NC(=O)Nc3ccc(F)cc3F)cc2)cc1	9	4	1910	4.9	15	-2	-19
COc1ccc(C(C(=O)NC2CCCCC2)N(C(=O)c2sc(C)nc2C)c2ccc(OC)cc2)cc1 (stereo not drawn)	.	.	10069	2.1	-29	6	10
Cc1nonc1NC(=O)N1CCCC1	9	7	8464	4.5	0	22	10
O=C(CS(=O)(=O)Cc1ccccc1)Nc1ccc(S(=O)(=O)N2CCCCCC2)cc1	15	8	3223	11	-16	4	10
Cc1ccc(CN2CCC(N3CC(C)OC(C)C3)CC2)cc1 (stereo not drawn)	-7	1	3121	1.5	-16	2	7
Cc1cccc(NC(=O)c2oc3ccc(S(=O)(=O)N4CCOCC4)cc3c2C)c1C	8	6	16066	4.3	-3	-5	15
Cc1ccccc1-n1cnc2cc(NCc3cccs3)ccc21	3	9	23047*	4.4	-17	3	8
COc1ccc(OC)c(C(c2nnnn2CCC(C)C)N2CCN(C(=O)c3ccco3)CC2)c1 (stereo not drawn)	.	.	3428	-0.3	-12	4	4
O=C(CSc1nnc(C23CC4CC(CC(C4)C2)C3)o1)Nc1ccc(N2CCOCC2)c(Cl)c1	2	1	9927	5.2	-14	-2	-1
O=S1(=O)CCOC[C@H](Cc2ccccc2)N1Cc1cccc(F)c1	.	.	4159	.	-20	9	.
COc1ccc(C2CC(=O)C3=C(C2)Nc2ccccc2N(C(=O)CCC(=O)O)C3c2ccc(F)cc2)cc1OC (stereo not drawn)	10	2	4652	0.0	-10	-2	1
O=C1C2C3C=CC(C4CC34)C2C(=O)N1N=Cc1ccc(-c2ccc([N+](=O)[O-])cc2)o1 (stereo not drawn)	5	2	.	6.6	.	.	-11
CCN(CC)CCn1c(-c2ccccc2)nc(=S)c2c1CC(C)(C)OC2	-4	-4	4105	0.4	-15	-4	0
Cc1ccc(OCC(=O)OCc2c(C)noc2C)cc1C	6	3	4485	4.4	-5	3	4
O=C(c1cc(F)cc2c1OCOC2)N1CCN(c2ccc(F)cc2)CC1	19	10	3727	1.9	2	-12	9
O=C(NN=Cc1cccs1)C(O)c1ccccc1 (stereo not drawn)	1	3	.	1.9	.	.	2
Cc1ccccc1OCC(=O)NNC(=O)CSc1nc(N)cc(N)n1	2	-1	3295	6.6	-22	-1	-1
CC1(C)C/C(=N/Nc2ccc([N+](=O)[O-])cc2[N+](=O)[O-])C(C)(C)O1	.	.	3795	.	-26	4	.
O=C(NC(=S)NNC(=O)c1ccccc1O)c1cccnc1	3	-2	4125	19	-6	12	2
COc1ccc2oc(C(=O)C3CC3)c(N)c2c1	.	.	4155	-2.4	-74	3	2
O=C(NCNC(=O)c1ccccc1)c1ccccc1	2	-4	9105	-1.7	9	-2	3
C=CCNC(=O)Cc1ccc(S(=O)(=O)N2CCOCC2)s1	2	1	8884	3.8	-19	.	4
CC(=O)c1cc2c(cc1NC(=O)c1ccccc1C)OCO2	3	4	.	0.8	.	2	-6

# An excerpt from above with just Sa ugtP lethal and Bead autofluor:
Structure	Sa ugtP lethal	Bead autofluor
Cc1ccccc1OCC(=O)NNC(=O)CSc1nc(N)cc(N)n1	-1	3295
CC1(C)C/C(=N/Nc2ccc([N+](=O)[O-])cc2[N+](=O)[O-])C(C)(C)O1	.	3795

# Next part
smiles	Mtb hypoxia inh	Mtb hypoxia inh growth	Bead autofluor	RN4220 kill	PrP UTR inh	BJeLR viability	Sa ugtP lethal
COc1cccc(-c2nc(CS(=O)(=O)CC(=O)N3CCc4ccccc43)c(C)o2)c1	14	8	6724	-14	-27	-8	2
CCCC1Nc2ccc(C(=O)O)cc2C2C=CCC12 (stereo not drawn)	-1	-1	8878	0.0	-14	2	1
O=C(O)COc1ccc2c(-c3ccccc3)cc(=O)oc2c1	0	3	3283	3.1	-5	0	6
COc1ccc(CCN(CC(=O)NCc2ccc(F)cc2)C(=O)c2snc(C(N)=O)c2N)cc1OC	0	0	3811	1.5	-27	-1	1
COc1ccc(/C=C/C(=O)N(c2ccccn2)C2CCCCC2)cc1OC	-7	6	4287	-2.4	-27	-1	-17
COc1cc2nc(CN3CCC(C(O)(c4ccccc4)c4ccccc4)CC3)[nH]c(=O)c2cc1OC	14	8	4794	14	1	11	-67
Cc1cc(N2C(=O)C3C4c5ccccc5C(c5ccccc54)C3C2=O)no1 (stereo not drawn)	13	1	21886*	2.0	-31	3	1
COc1ccc(NC2=C(c3ccc(OC)cc3)C(=O)c3ccccc32)cc1	9	-3	1937	0.5	0	-1	-10
CC(=O)Nc1ccc(OCCOc2ccc(/C=C3\C(=N)N4N=C(C)SC4=NC3=O)cc2)cc1	-6	-3	3794	-0.6	-14	7	0
CCC(CC)COC(=O)C1=C(C)NC(=O)NC1c1ccccc1Br (stereo not drawn)	11	4	3976	5.9	-14	-4	8
O=C(OCC(=O)N1CCCCCC1)c1cccc(Cl)c1	-1	-3	7182	5.8	-18	.	4
CCCNC(=O)c1cccc(NC(=O)C(C)C)c1	16	-8	2533	1.2	-10	4	9
CC(=O)c1ccc2c3c(ccc(O)c13)CC2	13	10	11219	8.2	-22	0	-1
CC(C)COC(=O)n1ccc(C(=O)N2CCCCC2)n1	10	0	9267	9.6	-21	5	7
CCOC(=O)CC1=CC(=O)Nc2ccccc2N1	9	8	.	7.2	-16	-6	13
COC(=O)C(C)N(C#N)c1nc(C)cc(C)n1 (stereo not drawn)	6	8	4181	4.4	5	-2	-2
CC(C)CNc1ncnc2c1cnn2Cc1ccc(Cl)cc1	19	18	6380	-13	.	6	9
CN(C(=O)COC(=O)/C=C/c1ccc2ccccc2n1)C1CCS(=O)(=O)C1 (stereo not drawn)	18	7	4256	5.0	-14	5	3
CCC(=O)Nc1ccccc1C(=O)OCc1ccc(C(=O)c2ccccc2)cc1	0	-3	20219*	4.3	-23	-7	-5
CN(C(=O)c1ccc(OC2CCN(CCc3ccccc3)CC2)cc1)C1CCOCC1	-4	8	4523	-2.6	-17	-5	-10
CN=C(Nc1ccc(Br)cc1)SC1CC(=O)N(c2ccc(OC)cc2)C1=O (stereo not drawn)	1	14	2229	-17	-16	-2	-11
CCc1nnc(NC(=O)CSc2nnc(-c3ccncc3)n2C)s1	4	11	3250	1.7	2	8	7
N#Cc1nc(-c2ccco2)oc1N1CCOCC1	3	5	10103	2.2	-8	.	5
C[C@H](NC(=O)c1nc[nH]c1C(=O)NCCCCCNC(=O)OC(C)(C)C)C(=O)OCc1ccccc1	.	.	3509	.	-8	6	.
Cc1ccccc1C(=O)NNc1ccc([N+](=O)[O-])cc1	-2	-3	19390*	2.3	-8	7	-1
O=C(ON=C1CCS(=O)(=O)c2sccc21)c1ccccc1	8	7	.	2.9	.	.	9
C=CCc1cccc(C=NNC(=O)CCCNc2ccc(C)cc2)c1O	5	-2	.	4.4	.	.	-10
COc1ccc(S(=O)(=O)N2CCN(C3CCCC(C)C3)CC2)cc1 (stereo not drawn)	14	13	3815	4.4	-9	0	16
COCCNC(=O)c1cc2nc3c(c(C(F)(F)F)n2n1)CCc1ccccc1-3	5	8	3605	5.6	-22	12	-3
CCN1C(=C2SC(=S)NC2=O)Sc2ccccc21	9	13	.	1.6	.	.	4
COc1ccc(-n2cc(-c3ccc(OC)c(OC)c3)[nH]c2=S)cc1	.	.	3345	.	-23	-1	.
O=S(=O)(NCC1CCCO1)c1cccc(S(=O)(=O)N2CCCC2)c1 (stereo not drawn)	.	.	2455	-1.3	-8	2	-1
Cc1ccc(C(=O)C(SC(C)(C)C)n2cncn2)cc1 (stereo not drawn)	6	4	3942	-1.1	-14	8	1
COC(=O)C1=C(NC(=O)c2ccccc2[N+](=O)[O-])CCS1	-3	-3	4270	-0.7	-28	8	8
CC1=C(OC(=O)c2ccc(Br)cc2)C(C)(C)C(c2ccccc2)OC1=O (stereo not drawn)	.	.	2396	-5.3	-22	10	28
COc1ccc(CNC(=O)C2CCN(c3nn4c(=O)cc(C)nc4s3)CC2)cc1	-12	10	6088	-1.8	-14	-6	3
O=C(NNc1cccc(Cl)n1)c1cccnc1Cl	-7	-7	2009	2.2	-3	-7	6
O=c1c(N2CCOCC2)c(N2CCOCC2)c1=O	3	15	5662	2.5	-19	-12	2
CCOC(=O)c1nn(-c2ccc(Cl)cc2C)ccc1=O	-4	2	3125	4.0	-10	-4	15
COc1ccc2cc(C(=O)O)n(CC(=O)c3ccccc3)c2c1	0	-3	3622	3.6	-12	-1	2
CCCc1cc(C(=O)OC)c(NC(=O)c2cc(C)on2)s1	10	6	8516	9.6	-18	-12	-8
Cc1nc2nc(SCC(=O)NCCCN3CCCCCC3)nn2c(C)c1Cc1ccccc1	1	-2	6914	-0.3	-17	-7	9
CCOC(=O)CC(=O)CSc1nc2ccccc2c(=O)n1-c1ccc(C(=O)N2CCOCC2)cc1	-8	3	10639	2.2	-14	0	-3
COCCNC(=O)C(c1ccc(C)o1)N(C(=O)c1snc(C(N)=O)c1N)c1cc(C)cc(C)c1 (stereo not drawn)	-4	8	7354	5.0	-13	5	-2
c1ccc(C2=Nn3c(nnc3-c3ccccn3)SC2)cc1	-11	1	4248	1.2	4	-4	-2
COCC(C)NCc1ccc(C)cc1C (stereo not drawn)	4	5	18417*	1.4	-5	0	0
COC(=O)C1C(=O)c2c([nH]c(C(=O)OCC3CCCO3)c2C)CC1C (stereo not drawn)	.	.	4295	-4.8	-64	1	-4
O=C(c1cc([N+](=O)[O-])ccc1Cl)N1CCN(Cc2ccccc2)CC1	-7	7	3772	-5.8	-3	12	-1
O=C(NCc1ccc(F)cc1)C(C(=O)NCc1ccc(F)cc1)c1ncc(C(F)(F)F)cc1Cl	2	11	4148	-0.1	-19	-11	2
O=C(Cn1c(=O)oc2ccccc21)Nc1nc(-c2ccccc2)cs1	1	-7	8872	1.4	-22	0	3
CC(C=Cc1ccco1)=NNC(=O)CNc1ccccc1C	7	4	.	7.3	.	.	-15
COc1ccccc1CNS(=O)(=O)c1csc(C(N)=O)c1	-4	-4	4919	-4.9	-6	-1	-8
COC(=O)Cc1c(C)c2ccc(OCC(=O)NCc3ccc4c(c3)OCO4)cc2oc1=O	.	.	4540	1.9	-14	-11	4
COc1ccc(Br)cc1/C=N/N1CCN(Cc2ccccc2)CC1	.	.	4301	.	-32	0	.
Cc1[nH]c2ccccc2c1/C=N/NC(=O)c1cccc(S(=O)(=O)Nc2cccc(C(F)(F)F)c2)c1	.	.	5543	.	-11	-2	.
O=C(NN1C(=O)NC2(CCCCC2)C1=O)c1cc2ccccc2o1	9	6	5470	4.8	.	.	2
COc1cccc(CNC(=O)C2CCN(S(=O)(=O)c3ccccc3)CC2)c1	18	5	9189	-0.2	-33	2	2
CCN(CC(=O)Nc1ccccc1OC)CC(=O)Nc1c(Cl)ccc(C)c1Cl	16	5	4739	7.1	-12	.	5
C#Cc1ccc(C2C=C(C(=O)N3CCOCC3)OC(OCC)C2CCCO)cc1 (stereo not drawn)	1&-7	8&8	.	5.2&2.8	.	.	0&-11
Cc1cc(/C=C2\C(=N)N3N=C(CC(=O)N4CCOCC4)SC3=NC2=O)c(C)n1Cc1ccccc1	6	6	6414	9.1	.	-1	-7
CCc1ccccc1NC(=O)c1cccs1	6	-2	4232	1.5	-16	12	-2
COC(=O)Cn1c(N2CCCC2)nc2c1c(=O)n(C)c(=O)n2C	9	3	3788	-2.1	-5	1	-1
CC(NC(=O)Cc1ccccc1)C(c1ccccc1)N1CCOCC1 (stereo not drawn)	10	6	3851	6.6	-10	4	5

# An unsorted share of the library; any-hit rate near 4%.
